# Screens (PubChem)
# VDR inh: Inhibitors of the vitamin D receptor (VDR): qHTS | Vitamin D3 receptor (Homo sapiens), P11473 | VDR-SRC2-3 peptide fluorescence polarization, 2 h | Potency, µM, for inactives: max response, negative = inhibition, most hits filed as inhibitors | 400,000 compounds, 0.93% hits | AID 504847, 2011; active means well fitted inhibition curve with a large enough effect; inconclusive means small, poorly fitted or top-dose-only effect, or another doubt; inactive means no such curve, though single readings can be large or run the other way; further: series mostly up to about 120 µM
# Target sequence (P11473 whole entry, looked up): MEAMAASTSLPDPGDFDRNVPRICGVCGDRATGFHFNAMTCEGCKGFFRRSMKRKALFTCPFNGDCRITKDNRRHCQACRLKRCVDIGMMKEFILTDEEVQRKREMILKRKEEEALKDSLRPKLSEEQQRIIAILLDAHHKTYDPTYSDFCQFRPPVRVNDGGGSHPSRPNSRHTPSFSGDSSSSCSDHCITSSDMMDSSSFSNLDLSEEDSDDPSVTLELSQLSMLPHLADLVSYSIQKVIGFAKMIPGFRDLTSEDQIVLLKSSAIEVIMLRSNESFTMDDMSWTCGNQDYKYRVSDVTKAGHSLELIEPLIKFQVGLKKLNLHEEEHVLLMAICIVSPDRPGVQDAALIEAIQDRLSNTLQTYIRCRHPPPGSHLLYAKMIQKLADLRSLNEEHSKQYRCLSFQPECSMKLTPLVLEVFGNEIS
#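 The screen uses fluorescence polarization to detect compounds that interfere with recruitment of the SRC2-3 coactivator peptide to VDR; plates are read after 2 h at room temperature.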
# Numbers without * were called inactive; ? = inconclusive; & = joins results of further samples; [ ] = another dose, or the depositor's remark. On the % scale 0 is the no-effect control and ±100 the full control effect; potency means the concentration at half of the fitted maximal effect. This is a subset; rates above refer to the full screens.
Compound	VDR inh
CCCOc1c(OC)cc(Cl)cc1C1NC(=O)NC(C)=C1C(=O)NCc1ccccc1 (stereo not given)	-2.0%
CC(/C=N/NC(=O)CSc1nnc(SCc2ccccc2)s1)=C\c1ccco1	18.2%
Cc1ccc(Cl)cc1NC(=O)C1CCCN(S(=O)(=O)c2c(C)noc2C)C1 (stereo not given)	8.6%
Cc1ccc(C)c(-n2c3nc(=O)n(C)c(=O)c-3cc3ccccc32)c1	-22.9%
COc1cccc(CNc2ccc3[nH]c(=O)[nH]c3c2)c1OCc1ccccc1F	-15.0%
Cc1ccc(S(=O)(=O)NNC(=S)NCC2CCCO2)cc1 (stereo not given)	3.3%
CCOc1ccc(/C=N/NC(=O)c2ccc(F)cc2)cc1CN1CC2CC(C1)c1cccc(=O)n1C2 (stereo not given)	3.3%
COCCn1c(SCC(=O)c2ccc3c(c2)OCCO3)nnc1C(C)C	-6.3%
O=C(N/N=C/c1ccc2ncccc2c1)c1cccc([N+](=O)[O-])c1	-9.2%
CCc1cccc(CC)c1NC(=O)COc1ccccc1C(=O)c1cc(C#N)c(=O)n(C2CCCCC2)c1	-15.6%
CC1(C)CC(c2nc(-c3ccccc3)cs2)CCS1 (stereo not given)	22.1%
COc1ccccc1CN1CC(C(=O)NCc2cccc(Cl)c2)CCC1=O (stereo not given)	-5.0%
COc1cccc(-n2cc(C(=O)O)c3ccccc3c2=O)c1	-12.7%
Clc1ccc(/C=N/Nc2ncnc3ccccc23)cc1Cl	6.4%
COc1ccc2c(c1)c1nc3ccccc3nc1n2CCn1c(=O)oc2ccccc21	16.2%
CCC1OC(=O)C(C)[C@@H](O[C@H]2C[C@@](C)(OC)C(O)C(C)O2)C(C)[C@@H](O[C@@H]2OC(C)CC(N(C)C)C2O)[C@@](C)(O)CC(C)C(=O)[C@@H](C)C(O)[C@]1(C)O (stereo not given in full)	2.4%
CS(=O)(=O)c1ccc(C(=O)NCC(c2ccco2)N2CCCCC2)cc1 (stereo not given)	-7.8%
CC(=O)Nc1ccc(-c2ccccc2)s1	1.9%
CC(C)c1ccc(OC(=O)c2cc(-c3ccc(Cl)cc3)on2)cc1	-4.0%
Cc1ccc(NS(=O)(=O)c2cc3c4c(cccc4c2)C(=O)NC3=O)cc1	-0.1%
O=c1oc2cc([N+](=O)[O-])ccc2nc1/C=C(\O)c1cccc(Br)c1	-10.3%
CCc1nc2ccccc2c(C(=O)OCC(=O)NCc2ccco2)c1C	-12.5%
CC1CCCN(C(=O)CNC(=O)c2ccco2)C1 (stereo not given)	39.3%[activator]
O=C1C2ON(c3ccccc3)C(c3ccncc3)C2C(=O)N1c1ccccc1 (stereo not given)	5.9%
O=C(Nc1ccc2c(c1)OCCO2)C(=O)NC1CC1	-8.1%
CCOC(=O)C1(CCOc2ccccc2)CCN(Cc2cc(OC)ccc2OC)CC1	-4.0%
COc1cccc(C(=O)Nc2ccc3nc(SCc4ccc(C)cc4)sc3c2)c1	4.4%
CC(C)(C)c1ccc(NC(=O)c2ccccc2)c([N+](=O)[O-])c1	-10.4%
CC(=O)Nc1cc(C(N)=O)c(Cl)cc1Cl	0.5%
Cc1ccc([N+](=O)[O-])cc1NC(=O)CN(C(=O)c1ccc(Cl)cc1)C1CCCCC1	5.5%
COCCCNC(=S)N(Cc1ccccc1)Cc1ccccc1	-11.6%
COc1c(Cl)cc(Cl)cc1/C=C(\C#N)c1nc(-c2ccc(Cl)cc2)cs1	-10.0%
CCN(CC)c1ccc(/C=N/Nc2nc3ccccc3[nH]2)c(O)c1	-2.0%
CCN(CC)C(=O)Oc1ccc(Cl)c2cccnc12	16.7%
Cc1ccc2oc(C(=O)N(C)Cc3ccon3)c(C)c2c1	4.6%
CN(C)c1ccc(N2C(=O)CSC2=S)cc1	89.1µM*
CCN1CCN(C(c2ccc(OC)cc2)c2c(O)cc(C)n(CCOC)c2=O)CC1 (stereo not given)	-10.9%
CCn1c(C)c(C)c2cc(C(=O)NCc3ccc(OC(C)C)cc3)ccc21	7.0%
CCCOc1ccc(C2C3=C(Nc4nc(N)[nH]c(=O)c42)c2ccccc2C3=O)cc1 (stereo not given)	-20.9%
Cc1nnc(NC(=O)CCn2c(=O)oc3ccc(Cl)cc32)s1	-13.4%

# Six of the compounds above, with values ahead of the structure.
VDR inh,Compound
-10.0%,COc1c(Cl)cc(Cl)cc1/C=C(\C#N)c1nc(-c2ccc(Cl)cc2)cs1
-2.0%,CCN(CC)c1ccc(/C=N/Nc2nc3ccccc3[nH]2)c(O)c1
16.7%,CCN(CC)C(=O)Oc1ccc(Cl)c2cccnc12
4.6%,Cc1ccc2oc(C(=O)N(C)Cc3ccon3)c(C)c2c1
89.1µM*,CN(C)c1ccc(N2C(=O)CSC2=S)cc1
-10.9%,CCN1CCN(C(c2ccc(OC)cc2)c2c(O)cc(C)n(CCOC)c2=O)CC1 (stereo not given)

# The list continues:
Compound	VDR inh
COc1cccc(C(=O)c2cc3ccc(O)cc3oc2=O)c1	5.6%
CCOC(=O)c1c(S(=O)(=O)N2CCCC(C(=O)Nc3cccc(C)n3)C2)c(C)n(C)c1C (stereo not given)	-11.0%&9.7%
CC(=O)N1CCN(c2ccc(NCc3ccc(-c4cccc(Cl)c4)o3)cc2)CC1	?
O=C(CN1CCC(NC(=O)C2CCCCC2)CC1)NCc1ccco1	-4.2%
COc1ccc(CCC(=O)Nc2cccc(Cl)c2)cc1	-2.3%
CCOc1ccccc1N(C)C(=O)c1nn(-c2ccc(C)cc2)c(=O)c2c1c1ccccc1n2C	-14.8%
Cc1cc(C)cc(C(=O)N2CCC(C(N)=O)CC2)c1	2.9%
COc1ccc(NC(=O)/C(Cl)=C(/Cl)S(=O)Cc2ccccc2)cn1 (stereo not given)	14.1µM*
COc1ccc(CNC(=O)C2=CCN(S(=O)(=O)c3ccc(C)cc3)CC2)cc1	-16.0%
N#Cc1cnn(Cc2ccccc2)c1/N=C/N1CCOCC1	-4.5%

# Laid out differently: entries from further up
COc1ccc(CCC(=O)Nc2cccc(Cl)c2)cc1
  VDR inh: -2.3%
CCOc1ccccc1N(C)C(=O)c1nn(-c2ccc(C)cc2)c(=O)c2c1c1ccccc1n2C
  VDR inh: -14.8%
Cc1cc(C)cc(C(=O)N2CCC(C(N)=O)CC2)c1
  VDR inh: 2.9%
COc1ccc(NC(=O)/C(Cl)=C(/Cl)S(=O)Cc2ccccc2)cn1 (stereo not given)
  VDR inh: 14.1µM*

# Carrying on:
Compound	VDR inh
Cn1nc(-c2ccncc2)nc2c(=O)n(C)c(=O)nc1-2	-8.1%
O=C(CSc1ccccc1F)NCC(c1cccs1)N1CCOCC1 (stereo not given)	5.7%
CC(C)NC(=O)C(=O)c1cn(C)c2ccccc12	23.9%
Cc1cc(C)c(S(=O)(=O)N(C)CC(=O)NCc2ccccn2)c(C)c1	9.6%
CCOC(=O)CSc1nc2cc(OC)c(OC)cc2c2nc(-c3ccccc3)nn12	-9.3%
O=C(CS(=O)CC(=O)N(c1ccccc1)C(C(=O)NC1CCCCC1)c1ccco1)Nc1ccc(F)cc1 (stereo not given)	-13.8%
O=C(N/N=C/c1ccc([N+](=O)[O-])o1)C1CCCC1	-17.9%
O=C(NCC1CCCO1)c1cc2n(n1)C(C(F)(F)F)CC(c1ccc(Br)cc1)N2 (stereo not given)	5.4%
Cc1cc(C)c(NC(=O)C(C)n2c(=O)c(C(F)(F)F)nc3ccccc32)c(C)c1 (stereo not given)	-2.8%
COc1cccc(CNC(=O)CC(c2ccc(F)cc2)N2Cc3ccccc3C2=O)c1 (stereo not given)	5.8%
Cc1cc2ncn(-c3ncnc4scc(-c5ccccc5)c34)c2cc1C	-13.8%
CC(C)c1ccc(C2C(C(=O)c3ccco3)=C(O)C(=O)N2CCN2CCOCC2)cc1 (stereo not given)	-18.9%
COc1cccc(NC(=O)C2CCN(S(=O)(=O)c3ccc4c(c3)NC(=O)CO4)CC2)c1	?
C=CCn1c(-c2cccn(Cc3ccccc3)c2=O)n[nH]c1=S	12.1%
Cc1c(OCC(=O)NCCCn2ccnc2)ccc2c3c(c(=O)oc12)CCCC3	3.7%
O=C(O)/C=C/C(=O)c1c(-c2ccccc2)[nH]c2ccccc12	?
C/C=C1\COC(C(=O)NC)(C(F)(F)F)C=C1C=C1CCCCC1 (stereo not given)	?
COc1ccccc1NC(=O)COC(=O)c1cc2ccccc2cc1O	-8.5%
COC(=O)c1ccc(C(=O)Nc2ccc3nc(-c4ccncc4)[nH]c3c2)cc1	-6.2%
c1ccc(-n2nnnc2Sc2ncnc3sc4c(c23)CCCC4)cc1	?
O=C(Nc1ccc(-c2cn3c(n2)SCC3)cc1)c1ccco1	-7.1%
CCOc1ccccc1NC(=O)CN1CCN(Cc2ccccc2)CC1	-21.4%
Cc1noc(C)c1C(=O)N1CCC2(CCCN(C(c3ccccc3)c3ccccc3)C2)CC1	?
COCc1c(C(=O)N/N=C/c2ccncc2)nnn1-c1nonc1N	4.7%
Nc1ncn([C@@H]2O[C@H](CO)[C@@H](O)[C@H]2O)c(=O)n1	13.5%&9.9%&1.2%
CC1(C)Cc2ccccc2-c2nnc(C(F)(F)F)n21	-1.5%
Cc1ccccc1NC(=S)N1CCN(c2ccccc2C)CC1	16.4%
CCOc1ccc(N(CC(=O)NCc2ccccc2)C(=O)CCC(=O)Nc2nccs2)cc1	0.7%
CC(C)CNC(=O)C(=O)Nc1cc2c3c(c1)C(C)C(=O)N3CCC2 (stereo not given)	6.1%
Cc1cccc(-c2nsc(SCC(=O)N3CCCC3)n2)c1	4.8%

# Following part:
smiles	VDR inh
O=C(CCCn1c(=S)[nH]c2cc3c(cc2c1=O)OCO3)NCc1ccco1	-9.7%
Cc1nn(C)cc1CNC(=O)C1CCC(=O)N(Cc2cccc(C(F)(F)F)c2)C1 (stereo not given)	3.2%
COc1ccc(Cn2c(=O)sc3ccccc32)cc1OC	-8.7%
O=C(NNC(=S)NCc1ccco1)c1cccs1	-10.2%
Cc1ccc(C)c(Cn2c(=O)n(CCC(=O)NCc3ccco3)c(=O)c3sccc32)c1	4.1%
Cc1sc(NC(=O)CSc2nnc(C(C)C)n2C)c(C#N)c1C	6.3%
COc1ccc(CNCc2cn(-c3cccc(F)c3)nc2-c2ccc(C)o2)cc1	7.0%
O=C(CN1c2ccccc2Sc2ccccc21)N/N=C/c1ccc(Cl)cc1Cl	-6.4%
CC1CCN(c2ccc(NC(=O)Cn3c(=O)oc4ccccc43)cc2)CC1	-2.2%
Cc1cc(CO)nn1-c1ccc([N+](=O)[O-])cc1	2.1%
Cc1c(N2C(=O)CSC2=S)c(=O)n(-c2ccccc2)n1C	5.8%
CN(C(=S)NC(=O)c1ccccc1)c1c(N)n(Cc2ccccc2)c(=O)[nH]c1=O	19.7%
CCOC(=O)Nc1ccc2c(c1)N(C(=O)CCN1CCN3CCCC3C1)c1ccccc1CC2 (stereo not given)	-6.2%
CCS(=O)(=O)N1CCCC(C(=O)NC2CCC(C)CC2)C1 (stereo not given)	3.6%
Cc1ccccc1C([O-])=Nc1ccc[n+](-c2nc3ccccc3nc2NS(=O)(=O)c2ccccc2)c1	-1.9%
CC12CC(c3ccccc3O1)N(C(=O)c1ccc(Br)o1)C(=O)N2c1ccccc1 (stereo not given)	5.6%
O=C(Nc1ccccc1Cl)Oc1ccc(-c2ccccc2)cc1	-17.4%
NC(=O)c1cc(S(=O)(=O)NCc2ccccc2)cs1	-18.4%&5.0%
O=C(Cc1cccs1)NC(c1ccccc1)c1ccccc1	-13.3%
Cc1ccc(NC(=O)CN2CCCC2c2cccn2C)cc1C (stereo not given)	11.2%
CC(C)(C)OC(=O)N1CC(O)CC1C(=O)OCC(=O)c1ccc(-c2ccccc2)cc1 (stereo not given)	-12.7%
O=Nc1c(O)[nH]c2ccc(Cl)cc12	-7.8%
O=C(Nc1cc(Cl)cc(Cl)c1)Nc1cnccn1	-5.7%
O=C(CN1CCN(c2ccc(Cl)cc2)CC1)Nc1ccc(F)cc1F	16.7%
COc1cccc(Cn2c(-c3nonc3N)nc3ccccc32)c1	-5.6%
COc1ccc(C(=O)COC(=O)[C@H](C)Nc2ccc(C(F)(F)F)cc2[N+](=O)[O-])cc1	-6.9%
COc1cc2c(cc1OC)C1C(=O)c3c(O)cc4c(c3OC1CO2)C=CC(C)(C)O4 (stereo not given)	-18.1%
Cc1ccc2c(C)c(C)c(=O)n(C)c2c1	0.8%
C1CCC2=NCCCN2CC1	-6.7%
O=C(COC(=O)c1cccnc1Cl)NCCc1ccccc1	-4.5%
CN(CCNC(=O)c1cc2c(-c3ccccc3F)nn(C)c2s1)C1CCCCC1	-16.7%
COc1ccc(CCN2CC(C(=O)N3CCSCC3)CCC2=O)cc1 (stereo not given)	1.6%
CCOC(=O)c1cnc2c(ccc3ccccc32)c1Nc1ccccc1OC	-7.0%
CCCCNS(=O)(=O)c1ccc2nc(-c3cccnc3)cc(C(=O)NC3CC3)c2c1	-15.6%
O=C1CCC(=O)N(c2ccccc2)N1	-7.1%
COc1ccccc1CNC(=O)c1ccoc1C	2.4%
COc1ccccc1NS(=O)(=O)c1cccc(C(=O)N/N=C/c2ccc([N+](=O)[O-])o2)c1	-20.8%
CCn1c(SC)nnc1C1CCN(CC(=O)Nc2ccccc2N2CCOCC2)CC1	-16.3%
O=C(NCCN1CCOCC1)C1CCN(Cc2ccccc2O)CC1	-0.8%
c1coc(-c2nnc3n2C2(CCCC2)Cc2ccccc2-3)c1	-0.5%
Cn1cnnc1SCC(=O)Nc1nc(-c2ccc(F)cc2)cs1	-9.1%
CC1=C(C)CS(=O)N(S(=O)(=O)c2ccc(Cl)cc2)C1 (stereo not given)	2.82µM*
CCOC(=O)c1nnn(-c2nonc2N)c1CN1CCCC1	5.6%
